# Marburg entry – blocks Marburg virus binding or cell entry; Marburg virus pseudotype entry/binding inhibition, cell-based; control for the full effect not named in the record; many of its hits are not listed in these tables; Potency, µM (highest dose often 49.2 µM), for the others: top-dose activity change, negative = inhibition, most hits filed as inhibitors; hit rate 6.5% among 18,000; active means well fitted inhibition curve with a large enough effect; inconclusive means small, poorly fitted or top-dose-only effect; inactive means no such curve, though single readings can be large or run the other way; tested in HEK293 cells; note: luciferase read-out
# Lassa entry – blocks Lassa virus binding or cell entry. Potency, µM (doses to about 49.2 µM), without a hit: at the top dose activity change, negative = inhibition, hits mostly inhibitors. hit rate 4.1% among 18,000. Lassa virus pseudotyped entry inhibition, cell-based qHTS; control for the full effect not named in the record; many of its hits are not listed in these tables. AID 720533; active = well fitted inhibition curve with a large enough effect; inconclusive = small, poorly fitted or top-dose-only effect; inactive = no such curve, though single readings can be large or run the other way; tested in HEK293 cells; note: luciferase read-out
# * hit, by the source's call; ? = inconclusive; · = no result given; & = joins results of further samples; [ ] = remark or other dose. % is set by controls: 0 for no effect and ±100 for the full control effect; potency is the fitted concentration of half-maximal effect.
SMILES,Marburg entry,Lassa entry
COc1ccc(CN2CCCC(Cn3cc(C(=O)N4CCCC4)nn3)C2)c(O)c1 (configuration not stated),7%,-6%
C=CCN(CC=C)Cc1cc(=O)oc2cc(OC)c(Cl)cc12,?,-27%
O=C1NC(=O)c2cc(Nc3ccc(F)cc3)c(Nc3ccc(F)cc3)cc21,?,?
O=C(NCc1ccccc1)c1ccc(NC(=O)C2CC2)cc1,26%,-16%
CSCC[C@H](NC(=O)[C@H](CC(C)C)NC(=O)CCNC(=O)[C@@H](NC(=O)[C@H](Cc1ccccc1)NC(=O)[C@H](CO)NC(=O)[C@@H](N)CC(=O)O)C(C)C)C(N)=O,12%,8%
CC1(C)C(=O)C2C[C@]3(O)C4=CC(=O)OC(c5ccoc5)[C@]4(C)CCC3[C@](C)(C2=O)C1CC(=O)O (some centres not stated),10%,-7%
COC(=O)c1cc(C(=O)OC)n2c(C)cc3ccccc3c12,13%[8.59 µM],-11%[8.59 µM]
CC1=CC(=O)OC1Cc1ccc2ccccc2n1 (configuration not stated),65%[activator],49%[activator]
O=C1C[C@@H](c2ccc(O)cc2)Oc2cc(O)cc(O)c21,21%[17.8 µM],31%[activator][17.8 µM]
CC(=O)NC(=O)c1ccccc1O,1%,-19%
CCCCc1nc2c(c3c1C[C@H](C)OC3)CN(C(=O)c1cccnc1)CC2,?,-11%[8.59 µM]
CCCC[C@@H](NC(=O)[C@@H](Cc1cn(C(=O)OC)c2ccccc12)NC(=O)[C@H](CC(C)(C)C)NC(=O)N1[C@H](C)CCC[C@@H]1C)C(=O)O,8%,-13%
CC1(OC(=O)c2ccc(Cl)nc2)C(=O)C=C2C=C(C3CC3)OC=C2C1=O (configuration not stated),12%,-6%
Cc1cc(CNC(=O)c2cnn(-c3ncc4c(n3)-c3ccccc3CC4)c2C2CC2)on1,13%,27%
O=C1OCCN1C(=O)[C@H]1[C@H](c2ccc([N+](=O)[O-])cc2)C(c2cccc(Cl)c2)=NN1c1ccccc1,-25%,-23%
COc1ccc([C@]23Cc4cc(OC)c(OC)cc4[C@H](O2)c2c(cc(C)oc2=O)O3)cc1,9%[8.59 µM],5%[8.59 µM]
N#CCCCS(=O)(=O)c1ccccc1,-23%,7%
CCCC(C)(COC(N)=O)COC(N)=O,13%,-10%
COc1cc(C=O)ccc1OCc1cn(CC(=O)c2ccc(O)cc2)nn1,23%,17%
CC(C)[C@@H](CC(=O)N[C@@H]1CCNC[C@H]1C(=O)N[C@H](CC(=O)N[C@@H](CCC(=O)O)CC(=O)O)Cc1c[nH]c2ccccc12)NC(=O)C[C@H](CO)NC(=O)[C@@H]1CNCC[C@H]1N,-25%,-1%
COC(=O)CCCC1=CC2=CC(=O)C(C)(OC(=O)C3CCCC3)C(=O)C2=CO1 (configuration not stated),-15%,-7%
O=C(CS)Nc1ccccc1,-9%,-11%
CN1CCC(N2CCN(C3CN(CCc4ccccc4)S(=O)(=O)C3)CC2)CC1 (configuration not stated),10%,15%
COC(=O)C1CCN(c2nc(CN(C)C3CCOC3)nc3cc(OC)c(OC)cc23)CC1 (configuration not stated),-19%,-2%
CC(C)Cn1nnnc1S(=O)(=O)Cc1cccc(C#N)c1,-18%,-5%
CCN1C(=O)[C@H]2[C@H]3C(=CC[C@@H]2C1=O)C1(OCCCO1)[C@@H]1O[C@H]1[C@H]3O,68%[activator][8.59 µM],8%[8.59 µM]
CC(=O)N[C@@H](Cc1c[nH]c2ccccc12)C(=O)OCc1cc(C(F)(F)F)cc(C(F)(F)F)c1,-14%,-20%
COc1ccc2c(c1)OC(C)CN(CCNC(=O)c1ccc(-n3cccn3)cc1)C2 (configuration not stated),-9%,31%[activator]
CCOC(=O)[C@H](Cc1ccc(O)cc1)NC(=O)c1ccccc1,0%,-5%
C=CCNC(=O)[C@H]1C=C(OC)C(=O)C[C@H]2c3ccccc3C[C@]12C,-22%[8.59 µM],4%[8.59 µM]
NC[C@@H]1O[C@H](O[C@@H]2[C@H](O[C@@H]3O[C@H](CO)[C@@H](COC[C@H]4O[C@@H](CN)[C@@H](O)[C@@H](O)[C@@H]4N)[C@@H]3O)[C@@H](O)[C@@H](N)C[C@H]2N)[C@@H](N)[C@H](O)[C@@H]1O,2%[17.8 µM],3%[17.8 µM]
O=C(O)C=Cc1ccc(Cn2ccnc2)cc1,6%,1%
CS(=O)(=O)c1ccc(Cn2c3c(c4cc(F)cc(F)c42)CCC[C@H]3CC(=O)O)cc1,24%,-23%
C(=Cc1nc(-c2ccccc2)oc1Nc1ccc2ccccc2c1)c1ccccc1,-1%&56%[8.59 µM],-16%&13%&16%[8.59 µM]
O=C1[C@H]2[C@@H]3[C@@H](O)[C@H](O)CC(=NOCc4ccccc4)[C@@H]3CC[C@H]2C(=O)N1C[C@@H]1CCCO1,6%[8.59 µM],9%[8.59 µM]
C=CC(C1=CC(=O)C=CC1=O)c1ccc(O)cc1 (configuration not stated),1%,-3%
CC(CCN1CCCCc2nc(C)c(C)cc21)=NO[C@H](C)CN1CCCc2nc(C)c(C)cc21,?,-12%[8.59 µM]
COCc1c(C(=O)N2CCC(N3CCCCC3)CC2)cnn1-c1ncc(C)c(-c2cccs2)n1,?,0%
CCCCC/C=C\C/C=C\C/C=C\CCCCC(N)=O,-8%,7%
O=C(O)C(Cc1ccc2c(c1)oc1ccccc12)NCP(=O)(O)O (configuration not stated),-11%,6%
NC/C=C/C(=O)O,-12%&-6%&4%,-1%&-6%&-8%
CCCCCCC(=O)Cc1cc(OC)c(OC)cc1C=C(C(=O)OCC)C(=O)OCC,-1%[8.59 µM],-3%[8.59 µM]
O=C1NC(=S)NC(=O)C1C(=O)Nc1ccccc1,10%,-5%
CCO[C@H](c1cc(OC)cc([N+](=O)[O-])c1OC)[C@H](C)[C@@H](OC)[C@H](C)C=CCC(=O)OC,1%[8.59 µM],-6%[8.59 µM]
C=CC[C@@H]1C=CC(ON=CC[C@@H]2C=C[C@@H](OC(C)=O)[C@@H](COC(C)=O)O2)[C@H](CO)O1 (some centres not stated),4%[8.59 µM],19%[8.59 µM]
COc1cc2c(cc1OC)C1C(=O)c3c(O)cc4c(c3OC1CO2)C=CC(C)(C)O4 (configuration not stated),?,?
Cc1ccc(C(=O)NC2CCC2)cc1-c1ccc(C(=O)NCC2CC2)cc1,?,?
CC(C)[C@@H](CC(=O)N[C@@H]1CCNC[C@H]1C(=O)N[C@H](CC(=O)N[C@@H](CCC(=O)O)CC(=O)O)Cc1ccccc1)NC(=O)C[C@H](Cc1ccccc1)NC(=O)[C@@H]1CNCC[C@H]1N,-21%,0%
CCC(C)(C)N=C(NC#N)Nc1cccnc1,20%,3%
CC(C)C[C@@H](CC(=O)N[C@H](CC(=O)N[C@@H]1CCNC[C@H]1C(=O)N[C@H](CC(=O)N[C@@H](CCC(=O)O)CC(=O)O)Cc1ccccc1)C(C)C)NC(=O)[C@@H]1CCCC[C@H]1N,22%,-2%
Cc1c[nH]c2ccccc12,-3%,-7%
Cc1nc(N=Nc2cc(S(=O)(=O)O)ccc2S(=O)(=O)O)c(COP(=O)(O)O)c(C=O)c1O,-2%,-3%
COC(=O)c1ccc(CN2C(=O)[C@@]3(CC(C)=C[C@@H](COc4ccccc4)O3)c3ccccc32)cc1,21%[8.59 µM],-15%[8.59 µM]
CC1(OC(=O)c2ccco2)C(=O)C2=COC(C3CC3)=CC2=C(Br)C1=O (configuration not stated),-14%,5%
COc1ccc2c(c1)-c1nc(-n3ncc(C(=O)N(C)C(C)c4ccon4)c3C3CC3)ncc1CC2 (configuration not stated),33%[activator],11%
COC(=O)C(C(=O)OC)C1c2ccccc2C=C(C2CC2)N1C(=O)OC (configuration not stated),-5%,7%
CSC[C@H]1CN(CCc2ccccc2)C(=O)[C@H]1CC(=O)Nc1ccccc1,-21%,14%
COc1ccc(C(=O)Nc2ccccc2CCC2CCCCN2C)cc1 (configuration not stated),?,2%
NCCn1oc(=O)[nH]c1=O,12%,-6%
COc1cc2nccc(Oc3ccc(NC(=O)Nc4ccc(F)cc4F)c(F)c3)c2cc1OC,-14%,-17%

# Continued.
SMILES,Marburg entry,Lassa entry
COc1cccc([C@@H]2Oc3ccc(Br)cc3C[C@@H]2OC(=O)N[S+](=O)([O-])c2ccc(C)cc2)c1,-4%[8.59 µM],3%[8.59 µM]
CCN[C@@H](C)Cc1cccc(C(F)(F)F)c1,?,-9%
CC1(C)Oc2ccc3ccc(=O)oc3c2CC1O (configuration not stated),2%,20%
C=CCC1CCC(=O)N2CCCC12 (configuration not stated),-10%[107 µM],6%[107 µM]
COc1ccc(CNS(=O)(=O)c2cc(Br)ccc2Br)cc1,19%,16%
Cc1occc1C(=O)Nc1ccccc1,9%,7%
CC[C@H](C)[C@H](NC(=O)[C@H](C)NC(=O)CNC(=O)[C@H](CCCCN)NC(=O)[C@H](CC(N)=O)NC(=O)[C@H](CO)NC(=O)CN)C(=O)N[C@H](C(=O)NCC(=O)N[C@@H](CC(C)C)C(=O)N[C@@H](CCSC)C(=O)O)[C@@H](C)CC,-4%,6%
COc1cc(/C=C/C(=O)N2CCN(CC(=O)N3CCCC3)CC2)cc(OC)c1OC,12%,-12%
Nc1ncnc2c1ncn2[C@@H]1O[C@@H](CO)[C@H](O)[C@H]1O,48%[activator][17.8 µM],-3%[17.8 µM]
Cc1ccc(S(=O)(=O)COCCN2CCN(S(=O)(=O)c3ccc(C)cc3)CCC2=O)cc1,0%,18%
COC(=O)CCCC1=CC2=C(c3ccccc3)C(=O)C(C)(OC(=O)C3CCCC3)C(=O)C2=CN1c1ccccc1 (configuration not stated),4%[8.59 µM],8%[8.59 µM]
OC1(c2cccnc2)CCN(Cc2ccc3c(c2)CN(Cc2ccsc2)CCO3)CC1,?,-7%
CC(C)c1c(O)c(-c2cc3c(c(C(C)C)c2O)CCC2C(C)(C)CCC[C@@]32C)cc2c1CCC1C(C)(C)CCC[C@@]21C (some centres not stated),7%,-8%
C[C@]12CC[C@@H]3c4ccc(OC(=O)N(CCCl)CCCl)cc4CC[C@H]3[C@@H]1CC[C@@H]2O,44%[activator],·
COc1cc([C@@H]2c3cc4c(cc3[C@H](O)[C@H]3COC(=O)[C@H]23)OCO4)cc(OC)c1OC,?,?

# Bioassay records from PubChem BioAssay.

# The list is partial (hit frequency here may not be typical).
